# Assay outcomes as filed in PubChem BioAssay.
# CtBP-E1A blk: inhibitors of CtBP/E1A interaction; AlphaScreen GST-E1A/His-CtBP binding, 1536-well; active compounds read low; control for the full effect not named in the record; actives 0.49% (n = 340,000); activity change, % (test concentration not listed); in the data active means activity change below about -65%; inconclusive means about -30% to -65%; inactive means above about -30%; note: % is set by controls: 0 for no effect and ±100 for the full control effect
#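 GST-E1A and His-tagged CtBP (125 nM each as 5X stock) were preincubated with pin-transferred compound for 2 h at 37 °C in the dark, then glutathione donor and nickel acceptor beads were added for 1 h before AlphaScreen reading.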
# Six1-Eya2 inh: inhibitors of human Six1/Eya2 interaction | activity change, % (no concentration beside the values) | actives 0.56% (n = 360,000) | AID 651725 | Q15475+O00167 | AlphaScreen GST-Six1/His-Eya2 binding, biochemical; active compounds read low; control for the full effect not named in the record; in the data active = activity change below about -65%; inconclusive = about -30% to -65%; inactive = above about -30%; note: % is set by controls: 0 for no effect and ±100 for the full control effect
#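 Compounds are tested against tagged Six1 and Eya2 proteins bridged by glutathione donor and nickel acceptor beads; after a one-hour incubation at 37 °C without light, AlphaScreen emission is recorded.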
# D2 ag: agonists of human D2 dopamine receptor (beta-arrestin); P14416; DiscoveRx PathHunter D2 beta-arrestin, luminescence, 90 min; 100% = 57 uM dopamine signal; activation, % (no concentration beside the values); actives 0.084% (n = 360,000); AID 624465; in the data active = activation above about 40%; inconclusive = about 15% to 40%; inactive = below about 15%; note: compound concentration not given in the record; the text of the record calls up to 30% inactive
# Target sequence (P14416 whole entry, looked up): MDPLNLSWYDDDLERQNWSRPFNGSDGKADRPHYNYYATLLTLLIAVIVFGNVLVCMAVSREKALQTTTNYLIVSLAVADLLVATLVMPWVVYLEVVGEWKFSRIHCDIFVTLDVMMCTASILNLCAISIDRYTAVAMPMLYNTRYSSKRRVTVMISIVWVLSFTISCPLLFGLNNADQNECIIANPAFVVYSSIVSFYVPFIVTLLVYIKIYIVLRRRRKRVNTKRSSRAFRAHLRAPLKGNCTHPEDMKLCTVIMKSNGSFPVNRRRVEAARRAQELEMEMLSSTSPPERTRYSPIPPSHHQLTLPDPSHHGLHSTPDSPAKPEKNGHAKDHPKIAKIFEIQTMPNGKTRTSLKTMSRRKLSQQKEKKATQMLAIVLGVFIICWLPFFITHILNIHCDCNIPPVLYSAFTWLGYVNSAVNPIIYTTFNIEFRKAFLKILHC
#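 DiscoveRx PathHunter D2 beta-arrestin cells (2,100/well) attached overnight, then compound-stimulated 90 min at 37 C in HBSS/10 mM HEPES/0.1% Tween-20 buffer; beta-galactosidase complementation read by luminescence after 1 h at ambient temperature. Dopamine 57 uM final (EC100) as control.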
# TRPML1 inh: blocks the human TRPML1 channel. Q9GZU1. actives 0.02% (n = 390,000). activity change, negative = inhibition, % (concentration not given with the values). AID 624415. TRPML1-inducible cells, Ca2+ dye fluorescence, FDSS; active compounds read low; inhibition of EC80 agonist-evoked calcium signal; in the data active means activity change below about -50%; inconclusive means about -30% to -50%; inactive means above about -30%;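 note: stimulus is agonist 54-4 at its EC80 concentration; % is set by controls: 0 for no effect and ±100 for the full control effect; the text of the record puts the active cut at -80%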
# Target sequence (Q9GZU1 whole entry, looked up): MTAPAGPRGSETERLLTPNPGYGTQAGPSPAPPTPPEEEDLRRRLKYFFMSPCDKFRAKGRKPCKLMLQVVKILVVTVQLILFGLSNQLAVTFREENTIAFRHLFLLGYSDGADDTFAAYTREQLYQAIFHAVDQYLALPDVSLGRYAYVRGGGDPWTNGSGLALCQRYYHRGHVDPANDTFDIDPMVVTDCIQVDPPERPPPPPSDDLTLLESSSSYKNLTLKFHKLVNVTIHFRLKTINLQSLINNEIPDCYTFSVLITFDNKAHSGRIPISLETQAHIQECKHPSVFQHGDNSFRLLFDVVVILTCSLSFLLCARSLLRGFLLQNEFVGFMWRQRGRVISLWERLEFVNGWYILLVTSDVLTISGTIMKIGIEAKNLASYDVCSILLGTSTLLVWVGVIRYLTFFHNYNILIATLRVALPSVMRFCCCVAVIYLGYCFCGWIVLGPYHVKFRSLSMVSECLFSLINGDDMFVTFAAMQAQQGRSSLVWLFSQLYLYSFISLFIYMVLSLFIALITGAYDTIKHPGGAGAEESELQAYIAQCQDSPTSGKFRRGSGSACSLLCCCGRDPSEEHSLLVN
#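 Calcium fluorescence in TRPML1-DL cells induced overnight with Tet: a 110 s read after compound pin addition, then a 110 s antagonist read after challenge with 54-4 at 4 uM final (EC80).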
# PINK1 expr mod: modulators of PINK1 expression. Potency, µM (highest dose often 76.6 µM), without a hit: top-dose activation (PINK1 increase), usual class: activators. PINK1 immunofluorescence, high-content cytometry, 24 h. actives 0.2% (n = 410,000). AID 624263; active = well fitted activation curve with a large enough effect; inconclusive = small, poorly fitted or top-dose-only effect; inactive = flat fitted curve, though single readings scatter; cell line not stated here;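 note: potency is the fitted concentration of half-maximal effect; % of control where 0% means no effect; nearly all actives have a fitted effect of over 65% in size; a mitochondrial uncoupler was the plate control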
#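 Cells are seeded, rested 12 hours, then given compound at five concentrations or DMSO for 24 hours. After fixation, blocking and antibody staining, PINK1 amount and mitochondrial localization are scored; CCCP serves as control.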
# TRPML1 agonist: activates the human TRPML1 channel; TRPML1-expressing cells, Ca2+ dye fluorescence, FDSS; host cell line not named in the record; reference of the full effect not given here; activation, % (no concentration beside the values); actives 0.12% (n = 410,000); in the data active = activation above about 50%; inconclusive = about 30% to 50%; inactive = below about 30%; note: 0% is about no effect; the text of the record puts the active cut at 80%
#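 Kinetic FDSS Ca2+ read in Tet-induced TRPML1-DL cells (ABD Ca8 dye plus quencher, 45-90 min RT loading): baseline, then compound, then 110 s agonist window; EC80 agonist 54-4 at 4uM final added afterwards for a 110 s antagonist window.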
# Starred values were filed as active, the others as inactive; ? = inconclusive; . = not tested or not shown; & = joins results of further samples; [ ] = remark or other dose.
nr | structure | CtBP-E1A blk | Six1-Eya2 inh | D2 ag
1 | O=c1[nH]c(N/N=C\c2ccc(F)cc2)nc2ccccc12 | -13 | -1 | 0.4
2 | NC(=O)C1(Nc2ccc(Cl)cc2)CCCC1 | -6 | 3 | -1.7
3 | COC(=O)c1nnn(-c2nc(N3CCOCC3)nc(N3CCOCC3)n2)c1C | -23 | -1 | 0.1
4 | Cn1c(=O)cc2c3c(c(N4CCCCC4)ccc31)C(=O)c1ccccc1-2 | . | ? | -3.7
5 | CCOC(=O)c1c(-c2ccc(C)cc2)csc1NC(=O)c1cccc(N2C(=O)CCC2=O)c1 | -1 | 4 | 2.0
6 | Nc1nc(Cl)c(C=O)c(N2CCCCC2)n1 | ? | 4 | 4.6
7 | COc1cccc(-c2ccc3c(c2)C2CC3CCN2C(=O)c2ccc(-c3ccccc3)cc2)c1 (configuration not stated) | -2 | -11 | -7.1
8 | Cc1cccc(C)c1NC(=S)NC(=O)CCc1ccccc1 | 9 | -2 | 1.3
9 | CCN(CC(=O)NCc1cccs1)C(=O)CCOc1ccccc1C | -3 | -1 | -1.8
10 | COc1ccc(-n2nc3c(c2NC(=O)c2ccc(S(=O)(=O)N4CCOCC4)cc2)CS(=O)C3)cc1 (configuration not stated) | . | 3 | -3.5
11 | COC(=O)c1ccc(Nc2ncnc3sccc23)cc1 | -6 | -2 | -2.4
12 | O=C(O)/C=C\C(=O)N1CCc2ccccc21 | 3 | 1 | -1.3
13 | CCOC(=O)c1cnc2ccc(OCC)cc2c1NCCCN1CCOCC1 | . | -15 | 3.1
14 | CCCn1c(C)cc(C(=O)CN2C(=O)c3cccc(N)c3C2=O)c1C | 14 | 2 | -2.8
15 | CCOC(=O)[C@H]1[C@H]2COc3ccc(OC)cc3[C@@H]2N2C(=O)CN(Cc3ccc(Cl)cc3)C(=O)[C@@]12C | -9 | -11 | 2.9

nr | TRPML1 inh | PINK1 expr mod | TRPML1 agonist
1 | -1 | 4.1% | -0.2
2 | -19 | -0.5% | 0.5
3 | 24 | 0.9% | 0.7
4 | -5 | 2.6% | 3.0
5 | 16 | 13% | -0.1
6 | 19 | 3.6% | -0.8
7 | -1 | 5.4% | 0.7
8 | -7 | 14%[38.3 µM] | -0.5
9 | 9 | 0.6% | -0.4
10 | -3 | -1.1% | 0.4
11 | 0 | 2.2% | -0.7
12 | -8 | 3.3% | -0.4
13 | . | 1.0% | .
14 | -2 | ? | -0.3
15 | 59 | 3.0% | -0.2

# Next part
nr | structure | CtBP-E1A blk | Six1-Eya2 inh | D2 ag
16 | CCCCCCCC(=O)OC(CN1CCCCCC1)CN1CCCC1=O (configuration not stated) | -7 | -2 | -5.6
17 | COc1ccc(C2/C=C\CN(C(=O)CC(C)(C)C)CC(=O)N2Cc2ccc(F)cc2)cc1 (configuration not stated) | -5 | -6 | 1.0
18 | CCc1cc[n+](C2=C([O-])c3ccccc3C(=O)/C2=N\S(=O)(=O)c2cccs2)cc1 | 0 | ? | -1.8
19 | CCCC(NC(=O)c1ccco1)c1nc2ccccc2[nH]1 (configuration not stated) | 6 | 2 | -2.2
20 | Cc1nc(=O)c(-c2ccccc2)c(C)n1-c1cccc(/C=C/C(=O)O)c1 | . | 4 | -1.1
21 | O=C(Nc1ccc(F)c(Cl)c1)NC1CC1 | -17 | -20 | -4.3
22 | CCOC(=O)C1(C)CCCCCN1C(=O)c1snnc1C (configuration not stated) | 8 | 12 | 7.5
23 | O=C(Nc1ccc2c(c1)OCO2)C1CCN(S(=O)(=O)c2cccc3cccnc23)CC1 | -12 | -9 | -4.6
24 | Cc1c(C#N)c(NC(=O)CCl)n(Cc2ccccc2)c1C | -12 | -3 | -4.7
25 | Cc1cc(C)c(CN2C(=O)c3ccccc3S(=O)(=O)c3ccc(C(=O)OCC4CCCO4)cc32)c(C)c1 (configuration not stated) | . | . | .
26 | O=C(COc1ccc(-n2cnnn2)cc1)Nc1ccc(F)c(F)c1F | . | -4 | -0.5
27 | CN(C)S(=O)(=O)c1ccc(C(=O)Nc2nc(-c3ccccc3)c(C(=O)c3ccccc3)s2)cc1 | -3 | 10 | -4.1
28 | CCOP(=O)(OCC)c1nc(-c2ccc(Cl)cc2Cl)oc1N1CCCCC1 | 0 | -16 | -20
29 | CC(C)C[C@H](NC(=O)[C@@H]1Cc2ccccc2CN1)C(=O)Nc1ccc(C(C)C)cc1 | -4 | -1 | -3.1
30 | O=C1COc2ccc(C(=O)CSc3nnc(-c4cccs4)n3Cc3ccccc3)cc2N1 | -2 | -3 | -3.1

nr | TRPML1 inh | PINK1 expr mod | TRPML1 agonist
16 | 2 | -1.6% | -0.5
17 | -5&-6 | -0.8% | 2.3&-0.2
18 | 4 | -3.9% | -0.1
19 | -6 | 0.1% | 0.3
20 | -11 | 1.4% | 3.8
21 | 11 | 4.0% | 0.0
22 | . | 3.5% | -0.6
23 | -7 | -0.2% | 1.1
24 | 10 | 0.0% | -0.3
25 | 6 | 0.1% | 2.2
26 | -10 | 3.5% | -1.7
27 | 5 | 0.9% | 0.8
28 | 38 | -0.7% | 2.4
29 | 24 | 0.8% | 0.2
30 | ? | 2.7% | -0.3

# The list goes on.
nr | structure | CtBP-E1A blk | Six1-Eya2 inh | D2 ag
31 | Fc1cccc(NC(=S)N2CCn3cccc3C2c2cccnc2)c1 (configuration not stated) | -16 | -1 | -5.0
32 | O=C(COc1cc(F)ccc1[N+](=O)[O-])Nc1ccc(N2CCOCC2)cc1 | 1 | -3 | 0.7
33 | CC(=O)OCC1OC(OC(C)=O)C(NC(=O)Cc2ccccc2)C(OC(C)=O)C1OC(C)=O (configuration not stated) | 12 | 4 | -1.5
34 | COc1ccccc1N1CCN(/N=C/c2cccc(OC)c2O)CC1 | . | -7 | -8.9
35 | Cc1nc(-c2nc(-c3c(C(=O)NN)noc3C)cs2)cs1 | 0 | -6 | 3.7
36 | O=Cc1cccc(OC(=O)/C=C/c2ccco2)c1 | . | -15 | -2.4
37 | Cc1noc(C)c1NC(=O)Nc1ccc2c(c1)C(=O)N([C@H](C)CO)C[C@H](C)[C@@H](CN(C)S(=O)(=O)c1ccc(F)cc1)O2 | . | 1 | 0.3
38 | O=C(CN(C(=O)c1csnn1)c1ccc2c(c1)OCCO2)NCc1ccccc1 | 1 | 3 | -3.9
39 | CN1C(=O)CSC1=Nc1ccc(Br)cc1 | -3 | 1 | 3.2
40 | COCCCNC(=O)C1CCN(S(=O)(=O)c2c(C)noc2/C=C\c2ccc(OC)cc2)CC1 | 1 | 0 | -0.1
41 | COc1ccc(C(=O)NCCS(=O)(=O)N2CCCCCC2)cc1 | -19 | -3 | -3.1
42 | CC(C)O/C(=N\S(=O)(=O)c1ccc(Cl)cc1)c1ccccc1 | 7 | 6 | -0.2
43 | Cc1ccc(F)cc1NC(=O)COC(=O)C1CCN(c2ccc(C(F)(F)F)cn2)CC1 | 3 | 7 | -4.5
44 | CCc1ccc(NC(=O)Nc2ccncc2)cc1 | 4 | 2 | 4.9
45 | Cc1ccc(NC(=O)Cn2c(=O)n(CCc3ccccc3)c(=O)c3c4c(sc32)CCCC4)c(C)c1 | . | . | .

nr | TRPML1 inh | PINK1 expr mod | TRPML1 agonist
31 | -14 | -0.5% | -0.8
32 | -3 | -0.7% | 0.2
33 | -3 | -1.5% | -0.1
34 | 2 | 1.9% | 0.7
35 | -9 | 0.8% | -0.1
36 | . | 0.5% | .
37 | 33 | 2.2% | -0.6
38 | 6 | 0.9% | -1.0
39 | 39 | -1.1% | 0.8
40 | 10 | . | -0.2
41 | -5 | -2.3% | -0.5
42 | 3 | 4.1%[38.3 µM] | 0.1
43 | 10 | 0.5% | -0.8
44 | -3 | 0.2% | 0.1
45 | 14 | 0.4% | -0.3

# Continued:
nr | structure | CtBP-E1A blk | Six1-Eya2 inh | D2 ag
46 | CCOC(=O)c1csc(-c2ccc3c(c2)CCO3)n1 | 0 | 0 | -3.2
47 | CC(C)OC(=O)C1C(=O)CC(C)(O)C(C(=O)OC(C)C)C1c1cccc([N+](=O)[O-])c1 (configuration not stated) | 0 | 9 | -3.7
48 | CSc1nc(Cl)c(Br)c(Nc2c[nH]c(=O)[nH]c2=O)n1 | ? | ? | -4.0
49 | CCOc1cccc(C(=O)Nc2c(C(=O)c3ccc(OC)cc3)oc3ccccc23)c1 | . | . | .
50 | COC(=O)[C@H]1C[C@@H]1[C@H](NC(=O)c1cnccn1)c1ccccc1 | 7 | 1 | -1.7
51 | CC(C)CC(NC(=O)CCC(=O)OCC(=O)[C@@]1(O)CCC2[C@@H]3CCC4=CC(=O)C=C[C@]4(C)C3[C@@H](O)C[C@@]21C)C(=O)O (some centres not stated) | . | -6 | -4.1
52 | CCC(C)n1c(=N)c(C(=O)NC2CCCCC2)cc2c(=O)n3ccccc3nc21 (configuration not stated) | . | . | .
53 | O=C(COC(=O)c1n[nH]c(=O)c2ccccc12)c1ccc(Cl)cc1 | -1 | 2 | -7.4
54 | Cc1ccc(NC(=O)C2(S(=O)(=O)c3ccc(C)cc3)CC2)cc1 | -7 | 5 | -4.8
55 | CC(=O)c1cc(-c2ccccc2)n(CCC(=O)NC2CCCC2)c1C | 1 | 0 | -2.7
56 | Cc1c(S(=O)(=O)N2CCc3ccccc3C2)c(=O)n(C)c(=O)n1C | 0 | 2 | -4.8
57 | CN(CC(=O)Nc1ccc(Cl)cc1)S(=O)(=O)c1cccc2cccnc12 | -2 | -5 | 0.9

nr | TRPML1 inh | PINK1 expr mod | TRPML1 agonist
46 | 2 | 0.4% | -0.2
47 | -10 | 4.0% | -0.5
48 | 19 | -3.0% | 8.5
49 | -1 | 0.7% | 0.9
50 | -17 | 0.4% | -0.5
51 | 4 | 2.4% | -0.1
52 | 12 | 1.9% | -1.1
53 | -6 | 1.6% | -1.7
54 | 32 | ? | 3.0
55 | 13 | 1.6% | -0.7
56 | 5 | -0.9% | -0.2
57 | 0 | 1.9% | 1.7

# Among those listed so far, six have a thiophene ring, fused or not:
nr | structure | CtBP-E1A blk | Six1-Eya2 inh | D2 ag
5 | CCOC(=O)c1c(-c2ccc(C)cc2)csc1NC(=O)c1cccc(N2C(=O)CCC2=O)c1 | -1 | 4 | 2.0
9 | CCN(CC(=O)NCc1cccs1)C(=O)CCOc1ccccc1C | -3 | -1 | -1.8
11 | COC(=O)c1ccc(Nc2ncnc3sccc23)cc1 | -6 | -2 | -2.4
18 | CCc1cc[n+](C2=C([O-])c3ccccc3C(=O)/C2=N\S(=O)(=O)c2cccs2)cc1 | 0 | ? | -1.8
30 | O=C1COc2ccc(C(=O)CSc3nnc(-c4cccs4)n3Cc3ccccc3)cc2N1 | -2 | -3 | -3.1
45 | Cc1ccc(NC(=O)Cn2c(=O)n(CCc3ccccc3)c(=O)c3c4c(sc32)CCCC4)c(C)c1 | . | . | .

nr | TRPML1 inh | PINK1 expr mod | TRPML1 agonist
5 | 16 | 13% | -0.1
9 | 9 | 0.6% | -0.4
11 | 0 | 2.2% | -0.7
18 | 4 | -3.9% | -0.1
30 | ? | 2.7% | -0.3
45 | 14 | 0.4% | -0.3
